E coli growth: E. coli growth inhibition, primary screen, OD600 | AID 1053175, 2014 | 330,000 compounds, 0.21% hits | OD600 absorbance (no concentration beside the values) | Escherichia coli growth, 23 h; stronger effect = lower value;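 active = OD600 absorbance below the run mean of sample wells minus 3.6 SD, in any replicate, cut at about 0.56 in these data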;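 note: stock transfer was 300 nL into about 60 µL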
Ecoli rRNA inh: reduced GFP signal of wild-type E. coli, primary screen, bacterial rRNA inhibitor project, GFP/RFP fluorescence, OD600, single point. GFP signal change (wild-type ribosome), % (concentration not given with the values). E. coli WT GFP vs humanized-ribosome RFP mutants, 24 h; stronger effect = lower value; DMSO median 0, no signal -100. 350,000 compounds, 1.6% hits;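 active = significant combined selectivity score with lowered wild-type GFP, culture density cut under 30%, mutant RFP and density less affected; inactive = any of these conditions unmet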; note: one replicate is shown; some compounds called inactive have numbers as strong as hits
Vif TR-FRET: inhibitors of Vif binding to APOBEC3G peptide, primary screen, biochemical, TR-FRET, GST-Vif 1-94, biotin-A3G peptide, dose response retest (AID 1117319) | inhibition, %, or IC50 in µM where a hit was titrated | 260,000 compounds, 0.57% hits | TR-FRET GST-Vif / biotin-A3G peptide binding; higher % means a stronger effect; test concentration not given here; strong numbers were not always called active;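 active = above the screen mean plus three standard deviations and confirmed in dose response; inconclusive = results disagree or hit not tested in dose response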;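 note: Vif residues 1-94 fused to GST binding biotinylated APOBEC3G peptide 110-148; 0% = full assay without inhibitor and 100% = GST in place of GST-Vif; retest series ran down from 100 µM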
FGF22 binding: binders of human FGF22 protein, primary screen, FGF22 synaptogenesis inhibitor project, biophysical, thermal shift, single point | Fibroblast growth factor 22 (Homo sapiens), Q9HCT0 | recombinant FGF22 thermal shift, SYPRO orange fluorescence; percent of sucrose octasulfate shift, DMSO zero | calls only at 9.99 µM | 340,000 compounds, 1.5% hits | AID 651658, 2012;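 active = melting point raised past a set limit in the mean and every replicate; inconclusive = no clear call; three in four hits are not shown here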
Target sequence (Q9HCT0 whole entry, looked up): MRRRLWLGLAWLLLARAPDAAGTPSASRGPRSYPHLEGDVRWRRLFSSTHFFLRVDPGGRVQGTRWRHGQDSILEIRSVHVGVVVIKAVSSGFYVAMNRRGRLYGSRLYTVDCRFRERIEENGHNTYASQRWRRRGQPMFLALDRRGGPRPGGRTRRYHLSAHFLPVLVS
HNF4A DNA FP: change in binding of human HNF4A to DNA, primary screen, biochemical, fluorescence polarization, FITC-DNA. 360,000 compounds, 0.3% hits. AID 1224865, 2016. 1 h. activity change, % at 10 µM; in the data active = activity change above about 30%, passing the limit was not always enough;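 note: controls were the assay level and a saturating level of protein; the project sought stronger binding though the title names inhibitors; some compounds called inactive have numbers as strong as hits; positive values seem to mean higher polarization but the record does not say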
Target sequence (P41235 whole entry, looked up): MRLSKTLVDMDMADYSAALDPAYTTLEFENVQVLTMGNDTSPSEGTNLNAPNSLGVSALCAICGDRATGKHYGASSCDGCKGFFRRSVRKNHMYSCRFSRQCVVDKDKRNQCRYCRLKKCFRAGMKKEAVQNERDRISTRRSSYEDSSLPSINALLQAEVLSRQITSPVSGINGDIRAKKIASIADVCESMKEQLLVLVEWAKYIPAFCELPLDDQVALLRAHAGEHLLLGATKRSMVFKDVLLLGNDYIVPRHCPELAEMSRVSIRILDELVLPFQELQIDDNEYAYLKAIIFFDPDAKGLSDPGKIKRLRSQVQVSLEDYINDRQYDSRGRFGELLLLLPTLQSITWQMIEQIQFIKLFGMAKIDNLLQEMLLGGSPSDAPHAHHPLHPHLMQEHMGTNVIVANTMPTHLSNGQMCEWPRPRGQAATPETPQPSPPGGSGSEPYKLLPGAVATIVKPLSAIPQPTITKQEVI
ALR inh: inhibitors of human ALR sulfhydryl oxidase, primary screen, biochemical, H2O2 detection, HRP-luminol luminescence, single point. 290,000 compounds, 3.8% hits. inhibition, % (test concentration not listed). purified ALR, DTT oxidation. AID 485317, 2010;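 active = mean and each replicate at 75% or more; inconclusive = only one of the two met; inactive = neither met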;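 note: stock transfer was 7.5 nL into about 7.5 µL; 0% = neutral wells and 100% = wells with inactivated enzyme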
Target sequence (P55789 whole entry, looked up): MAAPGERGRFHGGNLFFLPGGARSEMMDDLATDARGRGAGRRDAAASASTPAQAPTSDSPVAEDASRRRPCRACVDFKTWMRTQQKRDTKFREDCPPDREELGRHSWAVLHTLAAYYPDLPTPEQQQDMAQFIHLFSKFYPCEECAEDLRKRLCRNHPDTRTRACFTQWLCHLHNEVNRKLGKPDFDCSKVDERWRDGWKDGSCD
AF4-AF9 inh: inhibitors of AF4 peptide binding to AF9, primary screen, biochemical, AlphaScreen, biotin-AF4 peptide, FLAG-AF9, single point; inhibition, % at 10 µM; Protein AF-9 (Homo sapiens), P42568; AID 651704, 2012; 350,000 compounds, 0.47% hits;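 active = every replicate reaching a set inhibition limit, whatever the replicate mean, cut at about 25% in these data; inconclusive = mean inhibition reaches that limit but some replicates miss it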;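 note: 0% = plate neutral control median and 100% = total signal loss; the record names both 10 and 1 µM as test concentration; the first replicate is given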
Ecoli rRNA inh OD600: further read-out of Ecoli rRNA inh, marked with its call; OD600 change, %; measured here: OD600 growth;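 optical density of the mix in the first replicate; 0 = DMSO median and -100 = no signal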
Ecoli rRNA inh RFP: second read-out of Ecoli rRNA inh, no call of its own (marks repeat the call); RFP signal change, %; measured here: RFP humanized mutant strains;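 first replicate; 0 = DMSO median and -100 = no signal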
Numbers without * were called inactive; i = inactive; ? = inconclusive; nt = not tested or not shown; & = joins results of further samples.

structure	E coli growth	Ecoli rRNA inh	Ecoli rRNA inh OD600	Ecoli rRNA inh RFP	Vif TR-FRET	FGF22 binding	HNF4A DNA FP	ALR inh	AF4-AF9 inh
CNC[C@H]1Oc2ccc(NC(=O)Nc3ccc(OC)cc3)cc2CC(=O)N([C@H](C)CO)C[C@@H]1C	nt	2	-1	-3.1	nt	i	nt	nt	1.5
COC(=O)c1ccc2c(CCO)c[nH]c2c1	0.7	3	11	6.6	nt	i	0.3	0	7.1
Cc1noc(C)c1NC(=O)N[C@@H]1CC[C@H](CC(=O)Nc2ccccc2)O[C@@H]1CO	nt	1	1	-1.7	nt	i	nt	nt	-1.8
C[C@@H]1CCCCO[C@H](CN(C)C(=O)Nc2cccc3ccccc23)[C@H](C)CN([C@@H](C)CO)C(=O)c2cc(NC(=O)Nc3cccc4ccccc34)ccc2O1	nt	3	8	1.0	nt	i	nt	nt	-6.0
Cc1nc2scc(C)n2c(=O)c1S(=O)(=O)NCCc1ccc(Cl)cc1	0.62	4	10	8.9	4%	i	3.0	-5	-4.1
C[C@@H]1CCCCO[C@@H](CN(C)S(=O)(=O)c2ccc(Cl)cc2)[C@@H](C)CN([C@H](C)CO)C(=O)c2cc(NC(=O)NC3CCCCC3)ccc2O1	nt	2	9	-1.9	nt	i	nt	nt	-1.1
C[C@H]1CN([C@@H](C)CO)C(=O)c2cc(NS(=O)(=O)c3ccc(F)cc3)ccc2O[C@H]1CN(C)Cc1ccncc1	nt	1	-1	-2.0	nt	i	nt	nt	-5.4
S=C(NCCN1CCOCC1)N/N=C/c1cccs1	nt	12	13	0.4	nt	i	5.2	9	8.6
O=C(CSc1ncnc2c1cnn2-c1ccccc1)NC1CCS(=O)(=O)C1 (centres undefined)	0.64	4	14	2.3	nt	i	4.2	0	0.1
O=C(Nc1cccnc1)c1cc(-c2ccccc2O)on1	0.69	-2	-10	-4.9	nt	i	2.2	-17	-1.0
CCOc1cc2c(cc1OCC)C(C(=O)O)C(c1cc(OC)c(OC)c(OC)c1)N(C)C2=O (centres undefined)	0.73	nt	nt	nt	-9%	nt	8.0	20	nt
Cc1cccc(-c2cc3nc(C)c(C)c(NCCCn4ccnc4)n3n2)c1	0.6	-41	-67	-8.2	1%	i	3.3	-5	3.9
COc1ccc(C2Nc3ccccc3C(=O)N2c2ccccc2)cc1CN1CCOCC1 (centres undefined)	0.67	8	8	0.4	nt	i	2.5	-11	0.6
Cc1ccc(C(=O)NCC(=O)N2CCCN(C)CC2)cc1C	0.64	nt	nt	nt	nt	i	3.1	nt	2.2
COc1ccc(S(=O)(=O)N(C)C[C@@H]2Oc3ccc(NC(=O)Cc4ccccc4)cc3CC(=O)N([C@@H](C)CO)C[C@H]2C)cc1	nt	-4	-18	2.5	nt	i	nt	nt	-0.7
CCOC(=O)N1CCC(c2cc(=O)n3[nH]c(C)c(-c4ccc(F)cc4)c3n2)CC1	0.77	-54	-77	-11	6%	i	6.2	42	-5.7
COc1cc(NS(C)(=O)=O)cc(OC)c1OC	0.7	17	9	-0.6	5%	i	2.3	-33	-2.1
COc1ccc(Nc2nc(N3CCN(C)CC3)nc3ccccc23)c(OC)c1	0.7	5	4	1.2	7%	nt	0.0	-6	4.8
Cc1ccc(NC(=O)C2CCN(c3cnccn3)CC2)cc1C	0.7	6	4	0.0	-2%	i	2.6	-6	-2.2
COc1ccccc1CNC(=O)C/C(C)=N/NC(=O)COc1ccc(C)cc1Br	nt	nt	nt	nt	17%	nt	0.5	26	nt
N#CC(=NCc1cccnc1)C1=C(O)c2ccccc2C1=O	0.69	0	6	0.7	nt	i	1.5	nt	-2.2
O=C(c1ccc2c(c1)OCO2)N1CC(=O)N2[C@H](CO)[C@H](c3ccc(C#CCC4CCCC4)cc3)[C@@H]2C1	nt	3	-28	11	nt	i	nt	nt	5.1
CCc1ccc(NC(=O)C2=CC(c3ccc(OC)cc3)=NS(=O)(=O)N2C)cc1	0.77	-8	-9	-3.2	nt	i	-0.4	-3	-4.9
COc1cc(OC)c(N(C)S(=O)(=O)c2cccc(C(=O)OCC(=O)N(C)Cc3ccccc3)c2)cc1Cl	0.72	-8	-16	-4.6	nt	i	2.4	nt	8.5
CCOc1ccccc1-n1c(COc2ccccc2)nnc1SCC(N)=O	0.74	nt	nt	nt	-6%	nt	-1.9	10	nt
O=C(c1ccc(Cl)c([N+](=O)[O-])c1)N(Cc1ccco1)C1CCS(=O)(=O)C1 (centres undefined)	0.66	4	12	-0.9	-4%	i	1.4	-4	1.6
Cc1cc(C(F)(F)F)nc(Nc2nc(C)c3ccccc3n2)n1	0.73	nt	nt	nt	15%	nt	2.7	-8	nt
CC(Nc1nc2ccccc2n2cnnc12)c1ccccc1 (centres undefined)	0.66	-10	-7	2.6	6%	i	2.5	-4	1.5
COc1ccc(S(=O)(=O)N2CCCCC2)cc1NC(=O)c1ccccc1	0.7	7	16	-2.3	2%	i	-0.8	16	-8.0
CC1(OC(=O)C2CCCC2)C(=O)C=C2C=C(c3ccsc3)N(Cc3ccccc3)C=C2C1=O (centres undefined)	0.79	4	-4	10.0	nt	i	2.1	11	13
O=C(NCC(F)(F)F)[C@@H]1[C@@H](CO)[C@@H]2Cn3c(cccc3=O)[C@H]1N2CC1CCCCC1	nt	-2	0	-3.0	nt	i	nt	nt	-0.6
Cc1ccc(NS(=O)(=O)c2cccc(C(=O)NCC(c3cccs3)N3CCOCC3)c2)cc1 (centres undefined)	0.66	-15	-33	-2.5	-14%	i	-2.1	-2	-0.5
O=C(Nc1ccsc1C(=O)O)c1ccccc1Cl	0.67	4	-14	-3.4	-7%	i	-3.0	1	-3.2
Cc1ccc(C(=O)O)c(NC=O)c1OCc1ccccc1	0.7	-4	3	4.9	-6%	i	-0.5	nt	0.2
Cc1c(C(=S)NC(=O)C2CC2)c(=O)n(-c2ccccc2)n1C	0.69	11	7	3.0	9%	i	3.6	-31	-3.7
C[C@@H]1CN([C@H](C)CO)C(=O)CCCn2cc(nn2)CO[C@H]1CN(C)C(=O)Nc1ccc(N2CCCCC2)cc1	nt	7&0	17&8	13&0.6	nt	i	nt	nt	13&11&8.5
Cc1csc(N(C)C(=O)CSc2nnc(COc3cccc4ccccc34)o2)n1	0.66	nt	nt	nt	19%	nt	-1.8	-3	nt
C[C@@H]1CCCCO[C@H](CN(C)C)[C@H](C)CN([C@@H](C)CO)C(=O)c2cc(NC(=O)CCCN(C)C)ccc2O1	nt	1	5	-3.6	nt	i	nt	nt	-3.6
CC1=C(C(=O)OCc2ccccc2)C(c2cccc(Br)c2)NC(=O)N1 (centres undefined)	0.71	0	0	2.2	nt	i	3.0	-4	8.9
CCn1c(SCC(=O)Nc2ccc(OC)cc2)nc2c1c(=O)n(C)c(=O)n2C	0.65	2	-6	-0.1	nt	i	3.6	nt	-2.6
CCSC(=O)CCCCCCCCCCCO	0.71	nt	nt	nt	32%	nt	-1.0	-4	-4.2
CNC[C@H]1Oc2ccc(NC(=O)Nc3ccc(F)cc3)cc2CC(=O)N([C@H](C)CO)C[C@H]1C	nt	-1	-5	0.9	nt	i	nt	nt	-1.7
COC(=O)c1sc2nc3c(cc2c1N)C(=O)CC(C)(C)C3	0.7	8	6	-5.6	-1%	i	1.9	0	6.0
CCNC(=O)C1(C)CCCN(Cc2cc3ccccc3o2)C1 (centres undefined)	nt	5	11	-3.2	nt	i	-2.7	nt	-3.8
NC(=O)c1nnn(-c2ccc([N+](=O)[O-])cc2)c1-c1ccccc1	0.68	3	8	-1.9	?	i	6.1	-2	-3.1
NC(=O)c1ccc(NC(=O)CCC(=O)c2cccs2)cc1	0.69	8	11	0.8	6%	i	-2.8	-7	1.0
O=C(C[C@@H]1C=C[C@@H](NC(=O)Cc2ccccn2)[C@@H](CO)O1)NCCCN1CCOCC1	nt	0	3	-0.3	nt	i	nt	nt	0.9
CN(C)/C=C(\C(=O)c1ccc(Cl)cc1)c1nnnn1-c1ccc(Cl)cc1	0.71	nt	nt	nt	-5%	nt	0.3	-2	nt
N#Cc1c(C(F)(F)F)cc(-c2ccc(Cl)c(Cl)c2)nc1SCCN1CCOCC1	0.71	nt	nt	nt	-8%	i	4.5	-6	9.1
Cc1cc(C)c2c(n1)nn1c(C)c(CCC(=O)NCc3ccco3)c(C)nc21	0.76	17	0	18	21%	i	1.3	-1	-6.9
CC(C)NC(=O)N(C)C[C@H]1OCCCC[C@H](C)Oc2ccc(NS(=O)(=O)c3ccc(Cl)cc3)cc2C(=O)N([C@@H](C)CO)C[C@H]1C	nt	0	-4	1.2	nt	i	nt	nt	-0.7
CC1(C)CC(=O)C(CC2=C(O)CC(C)(C)CC2=O)=C(O)C1	0.7	nt	nt	nt	-1%	nt	-2.0	2	nt
COc1ccccc1N1CC(C(=O)Nc2ccc(S(=O)(=O)N3CCCC3)cc2)CC1=O (centres undefined)	0.65	0	7	2.5	-6%	nt	3.6	-5	-1.8
COc1cc(/C=N/NC(=O)c2cccc(S(=O)(=O)N3CCCC3)c2)ccc1O	nt	4	-1	-0.9	7%	i	2.5	99*	2.4
Cc1cccc(N2CCN(C(=O)CC(NC(=O)c3ccccc3Cl)c3ccccc3)CC2)c1C (centres undefined)	0.64	1	0	-1.9	nt	i	-1.6	-4	-0.9
C[C@H]1CN([C@@H](C)CO)C(=O)c2cccc(NC(=O)c3ccc(-c4nccs4)cc3)c2O[C@H]1CN(C)Cc1ccc2c(c1)OCO2	nt	-7	-4	-3.0	nt	i	nt	nt	-27
COc1ccc(C(c2nnnn2C2CCCC2)N2CCN(c3ccccc3)CC2)cc1 (centres undefined)	0.78	nt	nt	nt	11%	nt	-4.3	3	nt
CCN(CC(N)=O)S(=O)(=O)c1ccc(F)cc1	0.73	25	11	4.4	-2%	i	-1.3	0	-21
CCCn1c(=N)n(CC(O)c2ccco2)c2ccccc21 (centres undefined)	0.71	nt	nt	nt	>100µM*	nt	-0.6	5	nt
O=C(c1cc(S(=O)(=O)N2CCCCC2)ccc1F)N1CCCCC1	0.69	-1	3	-1.6	0%	i	-0.9	83*	-7.0
Cc1cc(O)cc2c1O[C@@](C)(CCC[C@@H](C)CCC[C@@H](C)CCCC(C)C)CC2	nt	nt	nt	nt	nt	i	5.2	-8	10
CCOC(=O)c1cc2c(OC)c(OC)ccc2c2[nH]cc(C#N)c(=O)c12	nt	-6	3	2.9	1%	i	6.0	nt	0.6
COC(=O)C(Cc1ccccc1)NC(=O)c1cc(=O)[nH]c2ccccc12 (centres undefined)	0.72	17	14	1.9	0%	i	-4.4	4	0.5

Compound activity: PubChem BioAssay, several laboratories

These rows are one share of the data (hit frequency here may not be typical).
